# Source: PubChem
# Ecoli rRNA inh: reduced GFP signal of wild-type E. coli, primary screen, bacterial rRNA inhibitor project, GFP/RFP fluorescence, OD600, single point. E. coli WT GFP vs humanized-ribosome RFP mutants, 24 h; hits give low values; DMSO median 0, no signal -100. GFP signal change (wild-type ribosome), % (no concentration beside the values). actives 1.6% (n = 350,000);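 active = significant combined selectivity score with lowered wild-type GFP, culture density cut under 30%, mutant RFP and density less affected; inactive = any of these conditions unmet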; also: one replicate is shown; some compounds called inactive have numbers as strong as hits
# T cruzi repl: inhibitors of intracellular T. cruzi growth, primary screen, luminescence, NIH3T3 host cells; T. cruzi beta-gal in NIH3T3, 90 h; actives 1.4% (n = 300,000); inhibition, % (concentration not given with the values); AID 1885, 2009;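 active = mean inhibition across valid replicates above about 55%, limit read from the data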;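 also: signal also drops with host cell toxicity which is not excluded here; 0% = plate median of DMSO wells and 100% = zero luminescence signal; higher percent means less beta-gal luminescence so fewer parasites; stock transfer was 50 nL into about 50 µL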
# Beta cell apopt: inhibitors of cytokine-induced beta cell apoptosis, primary screen, luminescence; INS-1E cytokine-induced death, ATP luminescence, 48 h; percent of positive-control rescue, neutral wells zero; protection from apoptosis, % (test concentration not listed); AID 435005, 2010; actives 0.8% (n = 300,000);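 active = all replicates at 75% or more, or half of them and the mean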;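 also: 0% = cytokine-treated negative control wells and 100% = positive control rescue; higher means more ATP so stronger rescue from cytokine killing; wells of about 40 µL received 100 nL stock; the first replicate is given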
# LANA-H2A inh: blockers of LANA interaction with H2A/H2B – biochemical, FP readout, HTS, primary screen; actives 0.6% (n = 320,000); inhibition, % (no concentration beside the values); Protein LANA1 (Human herpesvirus 8 type P (isolate GK18)), Q9QR71; cell-free LANA-H2A/H2B peptide, fluorescence polarization; AID 2629, 2010; in the data active = inhibition mostly above about 10%, no sharp cut-off; inactive = mostly below about 6.7%;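 also: stock transfer was 7.5 nL into about 10 µL; 0% = median of vehicle wells and 100% = median of positive control wells; one replicate is shown; the record names a cut of 25% in any replicate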
# Target sequence (Q9QR71 whole entry, looked up): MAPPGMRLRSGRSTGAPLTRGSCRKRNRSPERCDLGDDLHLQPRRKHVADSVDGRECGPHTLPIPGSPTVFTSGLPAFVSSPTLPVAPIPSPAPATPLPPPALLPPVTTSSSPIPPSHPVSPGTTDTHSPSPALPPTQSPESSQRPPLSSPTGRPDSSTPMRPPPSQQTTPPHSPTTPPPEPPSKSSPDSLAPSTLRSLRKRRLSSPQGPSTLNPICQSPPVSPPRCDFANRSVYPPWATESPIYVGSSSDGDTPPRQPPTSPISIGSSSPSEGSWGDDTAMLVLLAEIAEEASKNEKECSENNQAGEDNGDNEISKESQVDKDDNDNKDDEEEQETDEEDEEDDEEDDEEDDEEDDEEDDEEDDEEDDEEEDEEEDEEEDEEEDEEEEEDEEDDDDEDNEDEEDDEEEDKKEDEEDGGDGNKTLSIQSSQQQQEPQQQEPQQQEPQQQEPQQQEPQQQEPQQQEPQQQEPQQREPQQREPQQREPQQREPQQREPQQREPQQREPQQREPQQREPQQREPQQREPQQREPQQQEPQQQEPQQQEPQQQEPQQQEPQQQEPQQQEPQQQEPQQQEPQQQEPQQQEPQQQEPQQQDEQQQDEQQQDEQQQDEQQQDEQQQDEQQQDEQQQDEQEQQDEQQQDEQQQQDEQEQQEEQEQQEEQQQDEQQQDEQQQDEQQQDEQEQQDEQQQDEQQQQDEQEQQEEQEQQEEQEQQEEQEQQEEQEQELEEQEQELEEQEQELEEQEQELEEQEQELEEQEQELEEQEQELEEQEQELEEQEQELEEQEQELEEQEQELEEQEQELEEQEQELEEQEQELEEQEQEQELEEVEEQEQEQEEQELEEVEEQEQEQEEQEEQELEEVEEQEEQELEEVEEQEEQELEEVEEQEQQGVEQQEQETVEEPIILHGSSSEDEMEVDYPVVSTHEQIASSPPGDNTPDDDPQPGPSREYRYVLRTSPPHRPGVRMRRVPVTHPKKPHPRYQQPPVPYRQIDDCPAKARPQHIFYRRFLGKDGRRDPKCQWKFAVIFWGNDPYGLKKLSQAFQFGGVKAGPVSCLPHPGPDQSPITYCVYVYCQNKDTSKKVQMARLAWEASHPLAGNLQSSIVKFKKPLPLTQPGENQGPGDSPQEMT
# Beta2AR agonist: beta2AR agonists driving receptor internalization, primary screen, cell-based, FAP fluorogen, flow cytometry | actives 0.43% (n = 340,000) | response, % (no concentration beside the values) | AID 504454, 2011 | Am2.2-beta2AR cells; reference of the scale not given here | Beta-2 adrenergic receptor (Homo sapiens), P07550;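 active = response above a set limit, near 3 SD of response in nonfluorescent compounds, cut at about 42% in these data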;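 also: stock transfer was 100 nL into about 11 µL; a reference agonist was the positive control; negative values mostly stem from fluorescent compounds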
# Calb FLC: C. albicans growth inhibition with fluconazole, primary screen, CaCi-2 strain, Alamar Blue fluorescence | growth inhibition, % (concentration not given with the values) | actives 0.57% (n = 300,000) | C. albicans CaCi-2 (fluconazole-resistant clinical isolate) + fluconazole, 48 h;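 active = most replicates above 75%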;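 also: all wells also contain fluconazole at 8 µg/ml as a sub-toxic cotreatment; 0% = median of DMSO wells and 100% = median of geldanamycin control wells; wells of about 8 µL received 7.5 nL stock; the first replicate is given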
# ALR inh: inhibitors of human ALR sulfhydryl oxidase, primary screen, biochemical, H2O2 detection, HRP-luminol luminescence, single point; actives 3.8% (n = 290,000); inhibition, % (concentration not given with the values); purified ALR, DTT oxidation;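 active = mean and each replicate at 75% or more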;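 also: stock transfer was 7.5 nL into about 7.5 µL; 0% = neutral wells and 100% = wells with inactivated enzyme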
# Bfl-1 A1 inh: caspase 3/7 activation in MEF A1-2A-BIM cells, primary screen, A1 inhibitor project, cell-based, luminescence, HTS; actives 0.066% (n = 330,000); Caspase-Glo 3/7 luminescence, 3 h; percent of clofoctol response, vehicle zero; caspase activation, % (no concentration beside the values); AID 2462, 2010;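 active = over half of replicate activation scores above 10%, or exactly half above 10 with the replicate mean above 10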;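 also: wells of about 30 µL received 50 nL stock; many hits fall short of the cut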
# Ecoli rRNA inh OD600: second read-out of Ecoli rRNA inh, no call of its own (marks repeat the call); OD600 change, %; measured here: OD600 growth;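 optical density of the mix in the first replicate; 0 = DMSO median and -100 = no signal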
# Ecoli rRNA inh RFP: second read-out of Ecoli rRNA inh, no call of its own (marks repeat the call); RFP signal change, %; measured here: RFP humanized mutant strains;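 first replicate; 0 = DMSO median and -100 = no signal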
# Numbers without * were called inactive; x = no result given.
no.	Molecule	T cruzi repl	Ecoli rRNA inh	Beta2AR agonist	Bfl-1 A1 inh	ALR inh	Beta cell apopt	Calb FLC	Ecoli rRNA inh RFP	Ecoli rRNA inh OD600	LANA-H2A inh
1	CC1=C(C(N)=O)C(c2ccc(Cl)cc2)n2nc(CCCO)nc2N1 (stereo not drawn)	10	14	-4	0.4	-8	-7	2	-1.8	10	-0.2
2	COc1cccc(CNC(=O)CCc2nnc(C3CCCCC3)o2)c1	5	11	-1	0.3	x	-1	-18	1.8	11	1.6
3	CN(CC1CCOCC1)C(=O)CC1C(=O)NCCN1Cc1cccc(Oc2ccccc2)c1 (stereo not drawn)	-8	9	12	0.2	-5	2	0	1.1	2	1.1
4	Cc1ccc(S(=O)(=O)N2CCC(O)(c3cccnc3)CC2)cc1	18	x	3	-0.1	-2	-9	9	x	x	-2.0
5	Cc1cccc(-c2nc(C#N)c(N3CCCCCC3)o2)c1	41	x	-5	1.4	-5	x	45	x	x	-4.1
6	O=C(COC(=O)Cc1ccccc1F)Nc1ccc2c(c1)OCO2	-12	-11	10	0.2	-4	5	-18	-1.4	3	-11
7	Cc1cccn2c(CNCCCOc3cccnc3)c(C(=O)N3CCOCC3)nc12	-3	16	1	1.4	-2	-3	-1	0.1	8	-1.1
8	COc1cccc(CNC(=O)Cn2nc(-c3ccc(Cl)cc3)ccc2=O)c1	x	x	-6	0.1	-13	2	x	x	x	-0.8
9	CC(C)CC(=O)CC1(O)C(=O)Nc2ccccc21 (stereo not drawn)	-5	4	1	0.5	5	-5	-5	-0.7	-2	3.3
10	O=C(Cc1csc(NC(=O)c2ccccc2)n1)NO	-3	7	-7	-0.1	13	-2	-5	-1.3	10	-1.2
11	COc1cc(NC(=O)c2cccs2)c(C(=O)OCC(=O)c2cc(C)n(-c3ccccc3)c2C)cc1OC	21	x	6	-0.1	-2	0	4	x	x	-0.5
12	Nc1cc(Cl)ccc1C(=O)OCC(=O)NCc1cccs1	x	-9	-10	-0.5	-7	-2	x	1.8	-11	-0.3
13	Cc1ccccc1-c1nnc(SCC(=O)N(C)c2c(N)n(Cc3ccccc3)c(=O)[nH]c2=O)n1C	-12	8	-2	-0.6	2	1	5	-2.2	5	8.2
14	O=C(c1ccc(Cl)cc1)N1CCN(c2cccc3[nH]ccc23)CC1	9	-25*	-4	0.8	97*	x	-25	-0.1*	-13*	-4.3
15	CCOc1ccc(-c2cc(CCCC(=O)NCc3ccco3)no2)cc1	-4	-5	-13	-0.7	-1	-3	-10	3.8	-4	-1.5
16	COc1ccc(C2C(CC(=O)O)=C(O)C(=O)N2c2ccccc2)cc1 (stereo not drawn)	-3	x	-1	1.4	3	1	x	x	x	-1.6
17	COc1cccc(/C=C2\SC(=S)N(CCCC(=O)Nc3ccc(C(=O)O)cc3)C2=O)c1	-2	9	9	0.1	-4	-8	0	3.4	10	-2.5
18	COC(=O)CSC(=S)N1C(C)CCCC1C (stereo not drawn)	-10	-6	-5	-0.4	-23	-1	-3	-3.4	-10	6.1
19	Cc1ccccc1OCC(=O)Nc1ccc2c(c1)C(=O)c1ccccc1C2=O	3	-17	-11	-1.3	-5	-1	8	5.2	-17	1.6
20	O=C(c1cc(Cl)nc2ccccc12)N1CCN(S(=O)(=O)c2ccccc2[N+](=O)[O-])CC1	14	-7	6	0.2	7	5	-7	0.1	-16	-1.2
21	O=C1CCCN1c1ccc(S(=O)(=O)NCc2ccc(F)cc2)cc1	-7	0	-16	-1.8	-4	8	-1	-1.5	0	0.0
22	Cc1cc(C)n2c(SCc3ccc(C#N)cc3)nnc2n1	2	x	-31	-0.1	-15	-8	-16	x	x	-1.1
23	NC(=O)CSc1nnc(C2CC2)n1Cc1ccccc1	-2	3	0	0.1	-9	3	-7	-4.2	5	-3.0
24	CCCCN(CC)C(=S)Nc1ccc2nc3n(c(=O)c2c1)CCCCC3	0	x	-11	0.7	21	-4	-2	x	x	-1.5
25	CCc1ccc(/C=N/NC(=O)c2cc(C3CC3)nc3ccccc23)s1	-10	x	9	0.1	-2	5	-10	x	x	-3.4
26	COc1ccccc1C(=O)NC(CCSC)C(=O)N1CCC(Cc2ccccc2)CC1 (stereo not drawn)	19	-27	3	-0.2	-8	4	x	3.5	-41	0.1
27	O=C(O)CCC(=O)N1CCN(S(=O)(=O)c2ccc3ccccc3c2)CC1	-2	5	10	0.0	-5	x	1	1.7	5	1.3
28	COc1ccc(C(c2nnnn2C2CCCC2)N2CCC(C)CC2)cc1 (stereo not drawn)	21	x	-6	-0.1	3	22	-12	x	x	2.6
29	O=C(CNC(=S)N(CCCN1CCOCC1)Cc1cccs1)NC1CCCCCCC1	30	x	-7	0.9	-8	6	-2	x	x	-1.7
30	CC1CCC2(CC1)NC(=O)N(CC(=O)Nc1ccc3c(c1)OCCO3)C2=O (stereo not drawn)	1	17	-1	1.1	-1	-3	-4	0.0	6	-2.7
31	Cc1nc(N)ncc1C(=O)Nc1ccccc1	-2	20	-5	0.7	-76	2	27	-2.2	14	1.2
32	CC(=O)c1cnc2c(-c3cccc(Br)c3)cnn2c1C	-5	x	-16	-0.8	-13	0	-3	x	x	2.1
33	CCCCn1c(N)c(N(CC(C)C)C(=O)c2cc(S(=O)(=O)N3CCCCC3)ccc2C)c(=O)[nH]c1=O	-6	6	-5	1.3	5	4	16	0.7	12	1.5
34	Cn1c(OCc2cccnc2)nc2c1c(=O)n(Cc1ccc(F)cc1)c(=O)n2C	7	7	-1	0.9	-6	-2	-5	-0.3	-13	-1.4
35	Cc1ccc(C(=O)N2CCN(c3cc4c(cc3[N+](=O)[O-])n(C)c(=O)n4C)CC2)cc1	4	-17	-5	0.4	8	-3	3	-1.3	-19	-3.1
36	Cc1cc(C)cc(OCC(=O)N2CCCCCC2)c1	5	x	3	1.4	-15	-8	-2	x	x	-0.7
37	CCOc1ccc(-c2c(=O)n(OCc3ccc([N+](=O)[O-])cc3)c3ccccc3[n+]2[O-])cc1	9	x	x	0.0	0	4	-1	x	x	-2.3
38	CC(NCC(=O)Nc1ccccc1C(=O)NC1CC1)c1ccccc1Cl (stereo not drawn)	x	-6	0	0.4	-7	-7	x	-0.6	-18	-1.1
39	Cc1ccc(N2CCN(S(=O)(=O)N(C)C)CC2)cc1C	4	3	4	0.0	21	-2	-14	-2.0	2	2.1
40	Cc1ccc(-c2nnc(Cc3ccc(Cl)cc3)o2)cc1	-4	-1	-21	-1.1	x	-8	-16	-3.1	0	-9.5
41	CCC(C)NC(=O)C1CCC(CNS(=O)(=O)c2ccccc2)CC1 (stereo not drawn)	-5	8	-5	-0.2	1	-8	13	-0.7	5	-5.0
42	O=C(NCc1cccc(OC(F)(F)F)c1)c1cccc2c1C(=O)c1ccc(-c3ccc(F)cc3OCc3ccccc3)cc1S2(=O)=O	x	4	-7	1.1	-3	3	x	0.2	14	6.6
43	O=C(COC(=O)/C=C/c1cccc(F)c1)NC1CCCCCC1	x	8	0	-0.8	x	2	x	-0.9	8	5.4
44	Cc1ccc(NC(=O)/C(Cl)=C/c2ccccc2)cc1C	-1	x	-9	-0.1	-1	0	-8	x	x	2.1
45	Cc1nc2ccccc2c(=O)n1NC(=O)c1ccc([N+](=O)[O-])cc1	2	7	-2	0.1	-13	-2	10	-1.6	1	-1.1
46	CCNC(=O)N(CCOC)CC1CCCN(C2Cc3ccccc3C2)C1 (stereo not drawn)	20	17	-2	0.7	-9	0	4	1.7	4	2.6
47	CC1CC(C)CN(S(=O)(=O)c2ccc(Oc3ccc([N+](=O)[O-])cc3)cc2)C1 (stereo not drawn)	-21	x	3	0.9	-3	11	21	x	x	1.9
48	CC(=O)c1ccc(N2CCN(C(=S)Nc3cc(C)ccc3C)CC2)cc1	18	x	7	-1.6	0	-6	-1	x	x	5.9
49	COc1cc(CN2CCCC(C(=O)c3ccc(C(C)(C)C)cc3)C2)cc(OC)c1O (stereo not drawn)	44	-14	-9	0.6	x	1	-2	1.8	-12	-1.7
50	CCOC(=O)C1=C(C)N=c2s/c(=C\c3ccc(OCC(=O)O)c(OC)c3)c(=O)n2C1c1ccc(OC)cc1 (stereo not drawn)	-2	-1	11	1.5	x	-6	19	-2.9	-5	0.9
51	COCCN(C(=O)CCc1ccc(OC)cc1)c1nnc(-c2ccncc2)s1	6	14	2	-0.1	8	-3	0	3.5	4	5.4
52	COc1ccc(C(=O)N2CCCC(c3nc(-c4ccc(C)o4)no3)C2)cc1OC (stereo not drawn)	13	-1	1	0.6	x	-2	1	-1.4	0	2.3
53	O=C(Nc1ccccc1)c1cc(S(=O)(=O)N2CCOCC2)cs1	-78	x	-6	0.6	-11	0	-21	x	x	-2.4
54	CCc1ccc(NC(=S)Nc2ccc3cn[nH]c3c2)cc1	19	-21*	0	-0.4	10	0	1	-4.6*	-2.5*	-4.7
55	Cc1cc(C)nc(N2CCC(CNC(=O)CCc3ccccc3)CC2)n1	6	x	2	0.1	x	4	-15	x	x	3.0
56	CCCCC(=O)OCC(=O)Nc1ccc(C)c(F)c1	4	2	5	-0.1	1	-7	-13	5.1	-4	1.5
57	CCN1C(=O)CC(NCc2ccc3c(c2)OCO3)C1=O (stereo not drawn)	-6	x	-2	0.2	-10	1	8	x	x	-3.5
58	CCCc1ncc(CN2CCCC(C(=O)Nc3ccc(-c4cccc(OC)c4)cc3)C2)cn1 (stereo not drawn)	28	-5	13	-0.3	58	3	18	1.7	-28	2.2
59	CC(=O)c1cccc(NC(=O)C(Sc2ncnc3ccccc23)c2ccccc2)c1 (stereo not drawn)	6	x	-16	0.6	x	2	22	x	x	x
60	CCC(C(=O)NC1CCCCC1)N(C(=O)c1snc(C(N)=O)c1N)c1ccc(OC)cc1OC (stereo not drawn)	22	5	-24	0.6	-3	4	19	4.3	5	-3.5

# (next part)
no.	Molecule	T cruzi repl	Ecoli rRNA inh	Beta2AR agonist	Bfl-1 A1 inh	ALR inh	Beta cell apopt	Calb FLC	Ecoli rRNA inh RFP	Ecoli rRNA inh OD600	LANA-H2A inh
61	O=C(CSc1cn(CCNC(=O)c2cccs2)c2ccccc12)NC1CCCC1	6	6	23	0.1	10	2	0	0.2	-12	3.4
62	C[N+]1(CCOS(=O)C23CC4CC(CC(C4)C2)C3)CCOCC1 (stereo not drawn)	-7	x	9	1.2	-1	-2	3	x	x	-4.2
63	CCOC(=O)CNC(=O)Cc1ccc(OC)cc1	-30	1	0	-0.8	-10	0	-6	1.3	11	-5.2
64	CN(C)/C=C/C(=O)c1ccc(S(=O)(=O)c2ccccc2)cc1	-7	9	1	0.0	-9	x	-10	0.2	2	1.0
65	CCC(C)[C@H](NC(=O)NCc1ccc(OC)c(OC)c1)C(=O)O (stereo partly drawn)	-1	7	-4	-1.5	-9	-5	-1	-1.4	4	-18
66	CC(=O)c1ccc(Nc2cnn(C34CC5CC(CC(CC(=O)O)(C5)C3)C4)c(=O)c2Cl)cc1	12	3	-1	1.1	-4	-2	-10	-4.3	12	-2.6

# A portion of the library; the hit share may differ from the screen's.
